Screens (PubChem)
gsp agonist: activates gsp, the McCune-Albright syndrome mutation; gsp mutant cells, cAMP HTRF, 30 min; control for the full effect not named in the record; Potency, µM (highest dose often 76.9 µM), inactives show top-dose activation (cAMP increase), most hits filed as activators; 340,000 compounds, 0.13% hits; active = well fitted activation curve with a large enough effect; inconclusive = small, poorly fitted or top-dose-only effect, or another doubt; inactive = no such curve, though single readings can be large or run the other way; cell line not stated here;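 note: phosphodiesterase inhibitor Ro 20-1724 added with compounds to block cAMP breakdown; potency is the fitted concentration of half-maximal effect; nearly all actives have a fitted effect of over 60% in size; about a fifth of the inactives were tested at one dose only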
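Cells stably selected in G418 were plated at 2000/well, grown 16-24 hr, then given compounds in DMSO with the PDE inhibitor […] (300 uM solution added) for 30 min at 37C; cAMP was read by HTRF.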
ClpP mod: qHTS Assay for Activators of ClpP | ATP-dependent Clp protease proteolytic subunit (Bacillus subtilis (strain 168)), P80244 | purified B. subtilis ClpP, FRET peptide cleavage, 20 min | Potency, µM (series often up to 57.5 µM), for the others: top-dose activity change, negative = active | 340,000 compounds, 1.9% hits; active = well fitted falling curve with a large enough effect; inconclusive = small, poorly fitted or top-dose-only effect; inactive = no such curve, though single readings can be large or run the other way; note: potency is the fitted concentration of half-maximal effect; the source files actives as falling curves though it sought activators and does not explain the sign; nearly all actives have a fitted effect of over 65% in size; many hits overshoot -100%
Target sequence (P80244 whole entry, looked up): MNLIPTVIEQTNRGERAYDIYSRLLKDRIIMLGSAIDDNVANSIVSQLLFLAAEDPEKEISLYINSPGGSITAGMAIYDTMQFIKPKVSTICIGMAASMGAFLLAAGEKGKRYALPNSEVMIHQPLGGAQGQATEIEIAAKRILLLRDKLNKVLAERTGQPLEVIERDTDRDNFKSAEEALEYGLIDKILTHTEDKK
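ClpP 10 microg/mL final, pH 8 Tris/KCl buffer with BSA, glycerol, Tween-20; compound pinned in; FRET-FV substrate; RT 20 min; Ex320/Em430; ΔFRET vs ADEP 5.8 microM, DMSO, no enzyme.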
PINK1 modulator: modulators of PINK1 expression. 410,000 compounds, 0.2% hits. PINK1 immunofluorescence, high-content cytometry, 24 h. Potency, µM (series often up to 76.6 µM), for inactives: at the highest dose activation (PINK1 increase), most hits filed as activators; active = well fitted activation curve with a large enough effect; inconclusive = small, poorly fitted or top-dose-only effect; inactive = flat fitted curve, though single readings scatter; cell line not stated here;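 note: potency is the fitted concentration of half-maximal effect; % of control where 0% means no effect; nearly all actives have a fitted effect of over 65% in size; a mitochondrial uncoupler was the plate control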
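PINK1 protein level read as immunofluorescence by microplate cytometer in a fixed, stained stable cell line after 24 h exposure to five compound concentrations, with CCCP as control.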
Sfp PPTase inh: Sfp phosphopantetheinyl transferase inhibition. Biochemical Sfp PPTase activity, qHTS. 310,000 compounds, 3.5% hits. Potency, µM, for inactives: max response, negative = inhibition, most hits filed as inhibitors; active = well fitted inhibition curve with a large enough effect; inconclusive = small, poorly fitted or top-dose-only effect, or another doubt; inactive = no such curve, though single readings can be large or run the other way;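 note: the enzyme is Sfp with the accession as filed and its product quenches rhodamine fluorescence; potency is the fitted concentration of half-maximal effect; 0% = enzyme reaction without inhibitor and -100% = no enzyme wells; top concentration of the series not given in the record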
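Sfp 15 nM + cpd, 15 min RT; start w/ rhodamine-CoA 5 uM, BHQ-2-YbbR 12.5 uM (final); 50 mM Hepes pH 7.6, 10 mM MgCl2, 0.01% NP-40, 0.01% BSA; read 525/598 nm at 0 and 30 min.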
Menin MLL FP FL: menin-MLL binding inhibition, fluorescein peptide; Fluorescence polarization, fluorescein-MLL peptide displacement from menin; FP activity change, % at 61.4 µM; 290,000 tested, under 10 active; inconclusive = falling polarisation curve, or a change in total fluorescence; inactive = total fluorescence flat and polarisation flat or rising; no compound was filed as active; the % refers to the polarisation; negative = inhibition;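 note: % of control where 0% means no effect; inhibitors lower the polarisation; unlabelled MLL peptide was the positive control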
gsp antagonist: gsp mutant antagonism. 340,000 compounds, 0.4% hits. gsp-mutant cells, cAMP HTRF, 30 min; control for the full effect not named in the record. Potency, µM (doses to about 76.9 µM), inactives show at the highest dose activity change, negative = inhibition, most hits filed as inhibitors; active = falling curve of any shape with a large fitted effect; inconclusive = falling curve, mostly with a smaller effect; inactive = flat or rising curve; cell line not stated here;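 note: intracellular cAMP measured with PDE inhibitor Ro 20-1724 present during compound exposure; potency is the fitted concentration of half-maximal effect; % is set by controls: 0 for no effect and ±100 for the full control effect; nearly all actives have a fitted effect of over 65% in size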
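Cells in G418 medium, seeded 16-24 h, 37C; buffer exchange to DPBS + 1 mM CaCl2, 0.5 mM MgCl2, 0.05% BSA; cpds in DMSO + […] (300 uM stock), 30 min 37C; HTRF cAMP detection.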
D2 ag: activates the human D2 dopamine receptor. P14416. DiscoveRx PathHunter D2 beta-arrestin, luminescence, 90 min; 100% = 57 uM dopamine signal. activation, % (test concentration not listed). 360,000 compounds, 0.084% hits. AID 624465; in the data active = activation above about 40%; inconclusive = about 15% to 40%; inactive = below about 15%; note: compound concentration not given in the record; the text of the record calls up to 30% inactive
Target sequence (P14416 whole entry, looked up): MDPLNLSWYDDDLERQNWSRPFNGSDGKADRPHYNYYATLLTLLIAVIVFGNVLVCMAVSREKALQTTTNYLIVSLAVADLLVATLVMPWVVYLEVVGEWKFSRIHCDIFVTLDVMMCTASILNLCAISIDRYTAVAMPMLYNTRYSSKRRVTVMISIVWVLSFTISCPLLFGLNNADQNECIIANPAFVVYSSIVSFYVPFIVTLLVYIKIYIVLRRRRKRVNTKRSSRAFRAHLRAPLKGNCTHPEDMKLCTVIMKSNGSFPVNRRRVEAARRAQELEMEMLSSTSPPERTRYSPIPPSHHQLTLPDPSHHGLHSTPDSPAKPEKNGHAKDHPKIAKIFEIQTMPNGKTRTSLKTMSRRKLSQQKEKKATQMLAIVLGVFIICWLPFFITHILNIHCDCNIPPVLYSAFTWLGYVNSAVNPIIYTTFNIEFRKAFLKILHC
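DiscoveRx PathHunter D2 beta-arrestin cells (2,100/well) attached overnight, then compound-stimulated 90 min at 37 C in HBSS/10 mM HEPES/0.1% Tween-20 buffer; beta-galactosidase complementation read by luminescence after 1 h at ambient temperature. Dopamine 57 uM final (EC100) as control.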
* = called active by the depositor; ? = inconclusive; . = not tested or not shown; & = joins results of further samples; [ ] = dose if it differs, or a comment.

SMILES	gsp agonist	ClpP mod	PINK1 modulator	Sfp PPTase inh	Menin MLL FP FL	gsp antagonist	D2 ag
O=C(O)C1(O)C[C@@H](O)C(O)[C@H](O)C1 (stereo partly specified)	.	-0.4%	-0.6%	.	.	3.0%	-3.9
CCc1ccc(C(C)NC(=O)COC(=O)c2ccc(-n3cnnn3)cc2)cc1 (stereo unspecified)	-0.8%	-7.4%	0.3%	.	.	-3.6%	-4.4
CCOc1ccc(CN(C)C(=O)CNC(=O)c2sc3ccccc3c2Cl)cc1	19.8%	-1.1%	1.1%	.	.	-1.4%	-2.1
COc1ccc(/C=C/C(=O)NCCc2nc3ccccc3[nH]2)cc1	40.3%[15.4 µM]	.	-0.6%	23.9%	0.7	10.1%	1.9
O=C(NC(Cc1cn(Cc2ccccc2)cn1)C(=O)O)OCC1c2ccccc2-c2ccccc21 (stereo unspecified)	.	-1.6%	1.2%	.	.	.	-3.5
Nc1ccc(Cc2nc3c(ccc4ccccc43)[nH]2)cc1	5.6%	-22.4%	.	-9.3%	9.2	3.4%	-0.2
COc1cc2c(=O)c(-c3ccc(O)cc3)coc2cc1OC1OC(CO)C(O)C(O)C1O (stereo unspecified)	.	-7.7%	0.3%	6.9%	-1.3	2.2%	-1.3
CCOc1cc(-c2noc(CCC(=O)NCC3CCCO3)n2)ccc1OC (stereo unspecified)	-7.6%	.	2.3%	10.2%	1.0	10.2%	0.2
O=C(O)c1nn(Cc2csc(-c3ccccc3)n2)c(=O)c2ccccc12	15.9%[15.4 µM]	.	1.1%	10.9%	-0.5	-3.6%	-6.4
CN1C(=O)C(C)(C)c2cc(S(=O)(=O)N3CCCC(C(=O)Nc4ccc(Cl)cc4)C3)ccc21 (stereo unspecified)	-2.6%	0.3%	1.4%	11.4%	1.3	?	4.0
CCN1C(=O)C(O)(CC(=O)/C=C/C=C/c2ccccc2)c2ccccc21 (stereo unspecified)	-26.3%	-6.0%	6.3%	7.2%	3.0	-21.5%	-4.2
CCOC(=O)c1c(NC(=O)COC(=O)C2CCC2)sc(C(=O)N(C)C)c1C	17.2%	-1.8%	-0.7%	.	.	-6.2%	-4.0
O=C1CSC(=S)N1N=Cc1ccc2c(c1)OCO2	-31.6%[inhibitor]	0.1%	3.4%	.	.	-2.3%	3.4
C[C@H]1CCCCO[C@@H](CN(C)C(=O)NC2CCCCC2)[C@@H](C)CN([C@@H](C)CO)C(=O)c2cc(NC(=O)Cc3ccccc3)ccc2O1	-63.8%	-11.8%	4.1%	.	.	.	-3.9
COc1ccc(N2C(=O)NC(NC(=O)c3cccnc3)(C(F)(F)F)C2=O)cc1 (stereo unspecified)	-48.9%[inhibitor]	-0.7%	-1.9%	6.3%	-0.8	5.3%	1.4
CC(C)C[C@H](NC(=O)N1CCn2c1nc1ccccc12)C(=O)NC1CC1	9.7%	0.0%	-1.0%	0.7%	0.5	-16.3%	-2.2
COC(=O)C(C)NC(=O)C1CCCN1C(=O)CNC(=O)OCc1ccccc1 (stereo unspecified)	-48.8%[inhibitor]	.	-0.8%	16.1%	4.0	2.4%	-1.5
CCN(CC)C(=O)c1cc2c(=O)n3cccc(C)c3nc2n1C	27.8%	31.6µM*	-0.2%	3.4%	1.7	15.7%	-3.4
CC(C)OC(=O)C(CC(=O)O)NCc1ccccc1 (stereo unspecified)	?	-1.5%	1.7%	?	6.0	-1.7%	-0.8
CCOC(=O)c1c(C)[nH]c(N=Nc2ccc(OC)cc2)c1C	29.5%	-2.1%	0.9%	50.1µM*	0.1	-6.7%	-1.5
COc1cc(C)c(S(=O)(=O)N2CCN(C)CC2)cc1C	7.8%	-1.1%	1.8%	0.6%	0.8	7.0%	-3.5
C#CCOCCOCCOCCNc1nc(N2CCN(C(=O)Cn3cc(CCO)nn3)CC2)nc(N2CCN(C(=O)Cn3cc(CCCCN)nn3)CC2)n1	.	-0.5%	-0.4%	.	.	13.2%	-3.4
CC(C)=CCC/C(C)=C/C=N/NC(=O)c1ccc([N+](=O)[O-])cc1	?	0.6%	5.9%	-4.9%	3.9	6.0%	-1.2
CCC(C)(C)NC(=O)C(Sc1ccccc1)c1ccccc1 (stereo unspecified)	7.6%[15.4 µM]	.	3.0%	4.3%	-5.3	-7.9%	-3.8
O=C(O)Cc1c(-c2ccccc2)c2cc(Cl)ccc2[nH]c1=O	2.5%	.	1.8%	14.7%	1.0	3.1%	-2.3

At a glance, part of the list above:
SMILES	gsp agonist	ClpP mod	PINK1 modulator	Sfp PPTase inh	Menin MLL FP FL	gsp antagonist	D2 ag
O=C(O)C1(O)C[C@@H](O)C(O)[C@H](O)C1 (stereo partly specified)	.	-0.4%	-0.6%	.	.	3.0%	-3.9
CCc1ccc(C(C)NC(=O)COC(=O)c2ccc(-n3cnnn3)cc2)cc1 (stereo unspecified)	-0.8%	-7.4%	0.3%	.	.	-3.6%	-4.4
CCOc1ccc(CN(C)C(=O)CNC(=O)c2sc3ccccc3c2Cl)cc1	19.8%	-1.1%	1.1%	.	.	-1.4%	-2.1
COc1ccc(/C=C/C(=O)NCCc2nc3ccccc3[nH]2)cc1	40.3%[15.4 µM]	.	-0.6%	23.9%	0.7	10.1%	1.9

Next section.
SMILES	gsp agonist	ClpP mod	PINK1 modulator	Sfp PPTase inh	Menin MLL FP FL	gsp antagonist	D2 ag
CCOc1cc(C2/C(=C(/O)c3ccc(OC)cc3)C(=O)C(=O)N2CC2CCCO2)ccc1O (stereo unspecified)	-40.5%[inhibitor]	-1.0%	-0.4%	4.1%	1.2	1.6%	-0.2
O=C(COc1ccc(Br)cc1)NNC(=O)c1cc(S(=O)(=O)N2CCOCC2)ccc1Cl	-3.0%	-3.6%	-0.9%	.	.	-1.7%	2.0
COc1cccc(NC(=O)CC2C(=O)NC3CCCCC3N2C(=O)c2ccccc2)c1 (stereo unspecified)	13.3%[15.4 µM]	.	-0.2%	.	.	-5.7%	-3.5
O=C(CSc1ncn(-c2ccccc2)n1)c1cccs1	-22.1%	-0.8%	-2.2%	-11.6%	3.9	0.0%	-2.5
CCOC(=O)C1(CCOc2ccccc2)CCN(Cc2cccc(OCCO)c2)CC1	3.9%[15.4 µM]	-3.8%	-0.3%	-7.7%	4.7	7.4%	-6.0
CN(C)c1ccc(C(=S)N2CCN(c3ccccc3)CC2)cc1	1.0%	-2.0%	-0.2%	11.0%	0.9	-13.7%	-0.9
CCCCNC1=NCCS1	-11.1%[15.4 µM]	.	0.4%	11.4%	-4.5	12.3%	-2.5
CCN(CC)c1ccc(/C=C2\SC(N)=NC2=O)cc1	-65.1%[inhibitor]	.	6.9%	9.7%	?	-27.8%	-1.3
COc1ccc(/C=C2\N=C(c3ccccc3)NNC2=O)cc1	?	.	0.9%	6.7%	2.1	-13.8%	3.3
O=C(OCc1ccccc1)N1CCOCCOCCN(C(=O)OCc2ccccc2)CCOCCOCC1	-7.6%	-2.5%	-1.6%[38.3 µM]	2.3%	1.4	-30.7%	-2.9
CC1(C)CC(=O)C(C(=O)CCCCC(=O)C2C(=O)CC(C)(C)CC2=O)C(=O)C1	1.6%	-1.6%	12.0%[38.3 µM]	-15.5%	-0.2	-9.6%	3.3
CC1CCN(S(=O)(=O)c2ccc(NC(=O)CNC3CCCCC3)cc2)CC1	?	.	3.3%	16.8%	-4.2	7.5%	-0.7
Nc1nc(N2CCOCC2)nc(N(c2ccccc2)c2ccccc2)n1	7.4%	-1.1%	-1.0%	15.4%	-0.4	3.1%	-5.0
O=C(CCl)N(C1CCCC1)C1CCS(=O)(=O)C1 (stereo unspecified)	-1.1%[15.4 µM]	.	-0.8%	13.6%	0.0	-6.6%	-5.8
CCOc1ccc(C(=O)COC(=O)Cn2cnc3c2c(=O)n(C)c(=O)n3C)cc1	?	1.4%	-0.3%	.	.	6.5%	-2.4
CC[n+]1ccc(C)c2cc(S(=O)C(F)(F)F)ccc21 (stereo unspecified)	-3.7%	-10.1%	-21.4%[38.3 µM]	-2.8%	4.0	3.7%	-3.6
O=C(CN(Cc1cccs1)C(=O)CNS(=O)(=O)c1ccccc1)NC1CCCC1	10.5%[15.4 µM]	.	-0.9%	18.6%	3.7	9.0%	-0.6
O=C(CSc1nnc(NC(=O)c2c(F)cccc2F)s1)NCC1CCCO1 (stereo unspecified)	10.1%	-1.4%	1.5%	.	.	7.0%	0.9
CCOc1ccc(CNC(=O)CCCc2cn(C)c3ccccc23)cc1OC	29.6%	?	-0.4%&2.2%	5.6%	4.5	-8.0%	-1.9
CCC(C)NC(=O)c1ccc(CS(=O)(=O)Cc2ccc(Cl)cc2)o1 (stereo unspecified)	4.0%	0.4%	0.5%[38.3 µM]	7.6%	6.5	3.9%	-1.5
O=C(Nc1ccc(Oc2ccccc2)cc1)c1csc([C@@H]2O[C@H](CO)[C@H](O)[C@H](O)[C@H]2O)n1	.	-0.3%	4.5%	.	.	.	-17.0
COc1ccc(S(=O)(=O)Nc2ccc3c(c2)n(C)c(=O)n3C)cc1C	10.7%	.	2.7%	18.6%	-1.1	-5.7%	-1.0
Cc1ccc2[nH]c(=O)c(Cc3ccccc3)c(O)c2c1	-1.3%[15.4 µM]	.	1.9%	?	-2.8	8.2%	-2.0

Compound profiles, as listed above. Order of values: gsp agonist	ClpP mod	PINK1 modulator	Sfp PPTase inh	Menin MLL FP FL	gsp antagonist	D2 ag
Shown for `O=C(CSc1nnc(NC(=O)c2c(F)cccc2F)s1)NCC1CCCO1` (stereo unspecified) = 10.1%	-1.4%	1.5%	.	.	7.0%	0.9
Shown for `O=C(CCl)N(C1CCCC1)C1CCS(=O)(=O)C1` (stereo unspecified) = -1.1%[15.4 µM]	.	-0.8%	13.6%	0.0	-6.6%	-5.8
Shown for `Cc1ccc2[nH]c(=O)c(Cc3ccccc3)c(O)c2c1` = -1.3%[15.4 µM]	.	1.9%	?	-2.8	8.2%	-2.0
